Mtb MbtI inh: MbtI salicylate synthase inhibition; 100,000 tested, 0.89% active; purified MbtI enzyme, fluorescence intensity read-out; inhibition, %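 (about 17 µg/mL by stock and volumes)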; AID 493033;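 active means above 50% in both replicates, above 80% if mildly self-fluorescent; inactive means the rest, strongly fluorescent compounds included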;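 further: 0% = mean of negative and 100% = mean of positive controls; one replicate is shown; some compounds called inactive have numbers as strong as hits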
Polio RdRp inh: inhibitors of poliovirus RNA polymerase binding and polymerization; % elongation, % (compound at 16.7 µg/mL); AID 588519; poliovirus polymerase elongation, fluorescence polarization; stronger effect = lower value; 150,000 tested, 0.66% active; in the data active means % elongation below about 90%; further: some results filed as inactive read as strong as hits
Target sequence (P03300 1749-2209 limits assumed): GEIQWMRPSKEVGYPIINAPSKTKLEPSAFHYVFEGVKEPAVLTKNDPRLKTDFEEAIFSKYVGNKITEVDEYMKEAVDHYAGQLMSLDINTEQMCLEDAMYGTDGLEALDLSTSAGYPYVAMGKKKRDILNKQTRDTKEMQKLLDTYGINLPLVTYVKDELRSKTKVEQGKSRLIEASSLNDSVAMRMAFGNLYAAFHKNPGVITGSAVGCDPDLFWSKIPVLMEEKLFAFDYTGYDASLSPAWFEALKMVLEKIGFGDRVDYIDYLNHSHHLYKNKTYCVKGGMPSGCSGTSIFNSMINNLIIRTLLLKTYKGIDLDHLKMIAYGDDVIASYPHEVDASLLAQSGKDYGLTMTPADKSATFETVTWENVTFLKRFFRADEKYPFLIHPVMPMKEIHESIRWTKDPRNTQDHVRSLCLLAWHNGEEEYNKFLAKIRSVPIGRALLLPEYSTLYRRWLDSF
Mtb MenB inh: Mtb MenB enzyme inhibition; 100,000 tested, 0.43% active; MenB enzyme assay, absorbance read-out; some hits fall short of the stated cut; inhibition, %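 (about 12 µg/mL by stock and volumes)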; AID 540299;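 active means mean of two replicates above 30%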;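 further: 0% = no compound and 100% = wells with inactive enzyme; the first replicate is given; strong numbers were not always called active; inactives centre near -10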
Target sequence (P9WNP5 whole entry, looked up): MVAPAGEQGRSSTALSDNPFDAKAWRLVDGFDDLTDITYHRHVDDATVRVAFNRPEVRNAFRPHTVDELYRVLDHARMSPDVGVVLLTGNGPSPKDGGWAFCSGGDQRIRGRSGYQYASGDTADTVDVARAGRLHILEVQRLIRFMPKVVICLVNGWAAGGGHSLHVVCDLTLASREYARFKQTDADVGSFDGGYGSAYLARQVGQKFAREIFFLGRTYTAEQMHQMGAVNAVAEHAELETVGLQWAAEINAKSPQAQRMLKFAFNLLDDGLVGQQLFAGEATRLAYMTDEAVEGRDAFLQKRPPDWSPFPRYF
Polio RdRp inh intensity: further read-out of Polio RdRp inh, marked with its call; % elongation; measured here: total intensity read-out; formula for this scale not given here;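 total fluorescence in place of polarization; lower means less elongation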
An asterisk follows results filed as active; . = not tested or not shown; & = joins results of further samples.

no.	SMILES	Mtb MbtI inh	Polio RdRp inh intensity	Polio RdRp inh	Mtb MenB inh
1	O=C(COC(=O)c1c2c(nc3ccccc13)CCCC2)Nc1nc2ccccc2s1	.	110	105	2
2	CC(=O)N1CCCC1C(=O)O (stereo not given)	-13	101	96	6
3	O=C(Cc1cccc2ccccc12)NC1CCCCNC1=O (stereo not given)	-2	102	110	-17
4	Cc1ccc(C2=NN=C(NC(=O)C(F)(F)F)SC2)cc1	0	103	104	-20
5	Cc1cc(-c2ccc3ccccc3n2)nc2ccc3ccccc3c12	4	104	102	3
6	O=C(CCN1C(=O)c2ccccc2C1=O)NC1CCCCCC1	-3	102	98	-6
7	COc1ccc(N(C)C(=O)Cc2c(C(=O)O)[nH]c3ccccc23)c(OC)c1	24	102	101	-50
8	OCCCNc1ncnc2oc(-c3ccccc3)c(-c3ccccc3)c12	-360	103	101	-11
9	CCN1CCC(N(Cc2ccco2)C(=O)Nc2cc(C)cc(C)c2)CC1	-6	105	100	6
10	Cc1ncc(CO)c2cc(C(=O)Nc3ccccc3)c(=Nc3ccccc3)oc12	6	110	104	-9
11	CCc1cccc(NC(=O)CC2SC(N3CCCC3)=NC2=O)c1 (stereo not given)	0	107	105	-12
12	CCOc1ccc(-n2c(-c3nn(C)cc3Cl)n[nH]c2=S)cc1	-14	102	102	-46
13	O=C(NCc1cccnc1)c1cn(Cc2ccccc2)nn1	-6	102	100	6
14	CC1(C)CC(NC(=O)C2CCCCC2)CC(C)(C)N1	-1	100	101	-11
15	COc1ccccc1COCC(O)CN(Cc1ccco1)Cc1ccccc1O (stereo not given)	-5	107	101	-5
16	Cc1cc2oc(=O)cc(CN3CCC(C)CC3)c2cc1C	9	109	105	-5
17	COC(=O)c1c(C)nc2ccccc2c1C(=O)O	9	103	100	-18
18	CC(Sc1ccc(S(=O)(=O)N2CCN(C)CC2)cn1)C(=O)NCC1CCCCC1 (stereo not given)	9	109	102	-6
19	O=C(c1cnn2c(C(F)F)cc(-c3ccccc3)nc12)N1CCCC1	8	102	103	-16
20	O=C(NCc1nc(-c2ccccc2Cl)no1)c1cccs1	3	105	104	-3
21	CCC(=O)NC(=S)c1c(C)nc2sccn12	15	68*	57*	-222
22	CCC1CC(CSc2ncn[nH]2)OC1=O (stereo not given)	-5	103	100	-18
23	CC(C(=O)N1CCNC1=O)N1CCCC1c1cccs1 (stereo not given)	-9	97	99	-16
24	O=C(Nc1ccc(Br)cn1)c1ccccc1	-9	102	101	-9
25	Nc1cnc2cccc3c2c1-c1ccccc1C3=O	-11	194	82	5
26	CC(Sc1nnc(-c2ccco2)n1Cc1ccccc1)c1nc2ccccc2c(=O)[nH]1 (stereo not given)	-69	103	100	-14
27	COC(=O)c1ccc(C)c(NC(=O)C(C)Sc2ccccc2)c1 (stereo not given)	-5	100	99	1
28	C=CCn1c(C)cc(C(=O)COC(=O)c2ccc(N3CCCC3=O)cc2)c1C	-12	104	98	-6
29	O=c1c2ccccc2c(-c2ccc(F)cc2)nn1CCO	-7	97	103	3
30	CC(=O)N1CCc2cc(C(=O)O)ccc21	4	98	104	-7

Compound profiles, as listed above. Order of screens: Mtb MbtI inh	Polio RdRp inh intensity	Polio RdRp inh	Mtb MenB inh
`CC(=O)N1CCCC1C(=O)O` (stereo not given) reads -13	101	96	6
`OCCCNc1ncnc2oc(-c3ccccc3)c(-c3ccccc3)c12` reads -360	103	101	-11

The results go on:
no.	SMILES	Mtb MbtI inh	Polio RdRp inh intensity	Polio RdRp inh	Mtb MenB inh
31	CCN=C1S/C(=C\c2ccc(N3CCOCC3)cc2C)C(=O)N1CC	-9	104	101	-48
32	CCC(=O)Oc1ccc2c(c1)nc(C)n2CC	8	101	104	-18
33	O=C(O)C1CC(c2ccccc2O)=NO1 (stereo not given)	8	99	103	10
34	Cc1nc(Cc2nnc(SC(C)c3nc4scc(-c5ccccc5)c4c(=O)[nH]3)o2)cs1 (stereo not given)	-2	109	101	-35
35	Nc1ccc2nc(NC(=O)C34CC5CC(CC(C5)C3)C4)sc2c1	-1	103	103	-13
36	O=C(O)/C=C/C(=O)N1CCN(S(=O)(=O)c2ccccc2)CC1	-8	103	104	-19
37	O=C(NCC(=O)c1cccs1)c1ccc(-c2ccccc2F)o1	15	.	.	-17
38	c1cn2c(NC3CCCC3)c(-c3ccc(N4CCOCC4)cc3)nc2cn1	2	102	100	-24
39	CC(C)CC(=O)NC(=S)Nc1ccc(S(=O)(=O)N=C(N)N)cc1	5	102	100	-7
40	O/N=C(/Cn1nnc(N2CCCC2)n1)c1ccc(Cl)cc1	80	106	102	-23
41	CC1CCc2nn(CC(=O)NCCC3=CCCCC3)cc2C1 (stereo not given)	-1	102	102	-20
42	CCOc1ccc(S(=O)(=O)NN=C2CCN(C(C)=O)CC2)cc1	-7	109	103	-17
43	C=CCNC(=O)c1oc2ccc(S(=O)(=O)N3CCCCCC3)cc2c1C	-6	103	101	-27
44	COC(=O)C1CCN(S(=O)(=O)c2cccc3nsnc23)CC1	-16	105	98	10
45	NC(=NCc1ccco1)NC(=O)c1ccc(Cl)cc1	-3	106	102	-45
46	Cc1cccc(N(C)Cc2nnc(-c3ccccc3Cl)o2)c1	-5	106	98	-13
47	COc1ccc(N(C(=O)Cc2ccc(OC)c(OC)c2)C2C=CS(=O)(=O)C2)cc1 (stereo not given)	0	100	101	-7
48	CC(NCCC(c1ccccc1)c1ccccc1)c1ccccc1 (stereo not given)	-8&-13	100&101	99&98	-11&-3
49	O=C(Oc1ccccc1-c1nnco1)c1ccc(C(F)(F)F)cc1	-104	104	105	-80
50	O=C(O)c1cc(-c2ccco2)nc2ccccc12	80	115	93	.
51	O=C(CN1C(=O)CCC1=O)Nc1nc(-c2cccs2)cs1	0	112	114	-31
52	O=C(Nc1ccc2c(c1)OCC1CCCN21)C1=Cc2ccccc2OC1 (stereo not given)	16	105	101	-29
53	O=C(c1ccc2c(c1)S(=O)(=O)N=C1CCCCCN12)N1CCN(S(=O)(=O)c2ccc(F)c(F)c2)CC1	13	106	104	-10
54	CCOC(=O)C1=C(CC)NC2=C(C(=O)CCC2)C1c1ccccc1 (stereo not given)	89	103	101	-47
55	COC(=O)/C(=C/c1ccc2c(c1)OCO2)NC(=O)c1ccc(C(C)(C)C)cc1	4	107	104	6
56	O=C1N=c2ccccc2=C1c1sc(=O)n(-c2ccccc2)c1O	-10	99	101	.
57	C/C(COc1ccc(-c2csnn2)cc1)=N\NC(N)=S	26	96	102	-11
58	CCN(CC)C(=O)C(Sc1nnc(C2CC2)n1C1CC1)c1ccccc1 (stereo not given)	0	107	98	-4
59	O=S(=O)(Nc1ccc(CSc2ccccc2)cc1)c1ccc2c(c1)OCCO2	4	99	103	-25
60	O=C(Nc1ccc(F)cc1)NC1CCN(CC(=O)c2ccc(F)cc2)CC1	74	103	100	16
61	CC(NC(=O)CCCc1nnc2n(C)c(=O)c3sccc3n12)c1ccccc1 (stereo not given)	22	97	102	8
62	CC1=CC2CC1C1C(=O)N(C(C)C(=O)N3c4ccccc4CC3C)C(=O)C21 (stereo not given)	-1	109	109	7
63	O=S1(=O)C=Cc2ccc(NC(=S)Nc3ccccc3C(F)(F)F)cc21	36	147	82	-32
64	CC(C(=O)Nc1ccccc1)N(c1ccccc1)S(C)(=O)=O (stereo not given)	-1	99	103	-2
65	Cc1ccc(S(=O)(=O)c2c(Cl)sc(=O)n2C)cc1	15	101	102	-9
66	C=CCOC(=O)c1sc(NC(=O)c2sc3ccccc3c2Cl)nc1C	.	94	100	-10
67	CCCC(=O)Nc1cc2nn(-c3ccc(C)cc3)nc2cc1C	-9	101	100	-8
68	CC(C)(C)NC(=O)c1ccc2snnc2c1	.	103	106	1
69	CC(C)(C)C(=O)CSc1nnc(-c2ccncc2)n1-c1ccccc1	-3	109	103	-7
70	NC(=O)COC(=O)c1ccc2c(c1)OCO2	59	102	102	-21
71	CN(C)c1ccc(C(c2nnnn2CCOC(=O)Nc2ccc(Cl)cc2)N2CCOCC2)cc1 (stereo not given)	-8	106	103	-22
72	CCN1C/C(=N\S(=O)(=O)c2ccccc2)N(CC)C1=O	-6	100	100	-7
73	Cc1cc(C)n(-c2nc(C(=O)O)cs2)n1	4	97	101	-107
74	Nc1n[nH]c(C(=O)N/N=C/c2cccs2)n1	16	101	101	-78
75	OCC(CO)(CO)N=Cc1c(O)ccc2ccccc12	10	98	100	-272
76	CC1CCCC(NC(=O)COC(=O)c2ccccc2F)C1C (stereo not given)	-8	101	99	.
77	CCc1ccc(NC(=O)C(C)Sc2cccc[n+]2[O-])cc1 (stereo not given)	-1	105	104	.
78	O=C(O)CCC(=O)NCc1ccc(C(=O)O)cc1	-6	101	102	4
79	O=C(Nc1ccc2oc(-c3cccnc3)nc2c1)c1cccs1	.	106	99	-6
80	CN1C=NS(=O)(=O)c2ccccc21	-4	99	106	-21
81	O=C1C/C(=N\NC(=S)Nc2ccc(S(=O)(=O)N3CCOCC3)cc2)c2ccccc21	-8	109	112	-85
82	CCC1S/C(=N\S(=O)(=O)c2ccccc2)N(C2CCCCC2)C1=O (stereo not given)	2	101	98	-20
83	Cc1cc(NC(=O)[C@H](C)NC(=O)c2ccco2)ccc1Br	-2	105	104	0
84	COC(=O)c1ccccc1NC(=O)C(C)C	105	100	98	-25
85	COc1ccc(NCc2nnc(SCC(=O)c3ccc(C)cc3)o2)cc1	-9	103	103	-36
86	N#C/C(=C(/O)CSc1nnc(Cc2cccs2)n1C1CCCCC1)c1nc2ccccc2[nH]1	-29	184	135	-19
87	CCOC(=O)CSc1nc2c(C)ccc(C)c2cc1C#N	3	99	102	-21
88	COc1ccc(CCNc2ncnc3c2oc2ccccc23)cc1	1	106	102	-25
89	CCN(CC)c1nc2ccccc2n(Cc2cccc(OC)c2)c1=O	4	103	102	-39
90	CCC(C)C(NS(=O)(=O)c1cccc(C(F)(F)F)c1)C(=O)NCc1ccccc1 (stereo not given)	0	103	103	.

Three entries drawn at random from those above, as already listed:
no.	SMILES	Mtb MbtI inh	Polio RdRp inh intensity	Polio RdRp inh	Mtb MenB inh
86	N#C/C(=C(/O)CSc1nnc(Cc2cccs2)n1C1CCCCC1)c1nc2ccccc2[nH]1	-29	184	135	-19
82	CCC1S/C(=N\S(=O)(=O)c2ccccc2)N(C2CCCCC2)C1=O (stereo not given)	2	101	98	-20
87	CCOC(=O)CSc1nc2c(C)ccc(C)c2cc1C#N	3	99	102	-21

Later entries.
no.	SMILES	Mtb MbtI inh	Polio RdRp inh intensity	Polio RdRp inh	Mtb MenB inh
91	NC(=O)c1ccccc1NS(=O)(=O)c1cccc(C(F)(F)F)c1	-2	104	102	.
92	O=C(CN1C(=O)C2CC=CCC2C1=O)NCc1cccs1 (stereo not given)	26	99	102	4
93	O=C(Cc1ccc2c(c1)OCCO2)N1CCc2ccccc21	-25	113	105	14
94	Nc1nc(OCC(F)(F)F)nc(OCC(F)(F)F)n1	-20	101	100	-11
95	O=C(OCc1cc(=O)n2c(n1)sc1ccccc12)c1ccccc1	8	104	100	-23
96	CC(=O)NS(=O)(=O)c1ccc(NC(=O)[C@@H]2CCCC[C@@H]2C(=O)O)cc1	-3	101	103	-5
97	O=C(Oc1ccc(-c2nnco2)cc1)c1sc2ccccc2c1Cl	-6	107	105	-7
98	COCc1cc(C)nc(SC)c1C#N	18	101	101	-21
99	COc1ccc(-c2coc3cc4oc(=O)c5c(c4cc23)CCC5)cc1F	8	102	104	4
100	Cn1c(C(C)(C)C)n[nH]c1=S	20	105	102	-12
101	N=c1oc2ccccc2cc1C(=O)Nc1ccc(F)cc1	4	99	105	9
102	Cc1cc(O)c(C(C)C)cc1NC(=O)c1ccccc1	.	110	108	-23
103	CCCc1cc2c(=O)c(-c3ccc(C(=O)OCC)o3)coc2cc1OC	1	105	100	-5
104	O=C(OCc1ccco1)c1ccc(Cl)cc1	-22	102	101	-21
105	COC(=O)Cn1c(CCS(=O)(=O)c2ccc(Br)cc2)nc2ccccc21	0	103	103	-3
106	CN(C(=O)COC(=O)C1CCN(S(=O)(=O)c2cccs2)CC1)c1ccccc1	-17	101	103	-18
107	Cc1ccc(C(=O)COC(=O)c2c(F)cccc2F)cc1	-5	103	102	.

Compound activity from PubChem.
